# Screening data from PubChem BioAssay.
# Beta apoptosis – blocks beta cell apoptosis; INS-1E cytokine-induced death, ATP luminescence, 48 h; percent of positive-control rescue, neutral wells zero; protection from apoptosis, % (concentration not given with the values); hit rate 0.8% among 300,000;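 active = all replicates at 75% or more, or half of them and the mean; inconclusive = half reach 75% but not the mean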;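 also: 0% = cytokine-treated negative control wells and 100% = positive control rescue; higher means more ATP so stronger rescue from cytokine killing; wells of about 40 µL received 100 nL stock; the first replicate is given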
# B2AR ag – activates human beta-2 adrenergic receptor causing internalization; AID 504454; hit rate 0.43% among 340,000; response, % (no concentration beside the values); Am2.2-beta2AR cells, FAP receptor internalization, flow cytometry; reference of the scale not given here;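 active = response above a set limit, near 3 SD of response in nonfluorescent compounds, cut at about 42% in these data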;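 also: stock transfer was 100 nL into about 11 µL; a reference agonist was the positive control; negative values mostly stem from fluorescent compounds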
# UCH37 inh – inhibitors of human deubiquitinating enzyme UCH37. inhibition, % (concentration not given with the values). purified proteasome/UCH37, Ub-AMC cleavage fluorescence. hit rate 0.33% among 330,000. AID 588478;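 active = mean of two replicates above 20%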;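 also: 0% = compound-free wells with enzyme and 100% = wells lacking proteasome; stock transfer was 100 nL into about 20 µL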
#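 Material: Human UCH37 enzyme supplied as purified proteasome complex | Schedule: 30 min compound-proteasome preincubation then 25 min substrate reaction, room temperature | Detection: AMC fluorescence from Ub-AMC cleavage, excitation 355 nm, emission 460 nm | Benchmarks: Wells without proteasome as full block, compound-free enzyme plus substrate as uninhibited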
# RanGTP-Imp inh – disruptors of Ran-importin-beta complex formation – biochemical, FRET, CFP-Ran, YFP-importin-beta, homogeneous, primary screen; inhibition, % (no concentration beside the values); AID 2216; hit rate 1.1% among 300,000; cell-free CFP-Ran/YFP-importin-beta FRET ratio;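 active = most replicates above 15%; inconclusive = exactly half above 15%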;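 also: 0% = DMSO wells and 100% = Ran loaded with GDP instead of GTP; wells of about 40 µL received 100 nL stock; the first replicate is given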
# Calb FLC – C. albicans growth modulation with fluconazole; C. albicans CaCi-2 (fluconazole-resistant clinical isolate) + fluconazole, Alamar Blue growth, 48 h; growth inhibition, % (no concentration beside the values); hit rate 0.57% among 300,000;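 active = most replicates above 75%; inconclusive = exactly half above 75%; inactive = most below 75%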;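 also: all wells also contain fluconazole at 8 µg/ml as a sub-toxic cotreatment; 0% = median of DMSO wells and 100% = median of geldanamycin control wells; wells of about 8 µL received 7.5 nL stock; the first replicate is given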
# Bfl-1 A1 inh – inhibitors of the anti-apoptotic protein A1, read as caspase activation; MEF A1-2A-BIM cells, Caspase-Glo 3/7 luminescence, 3 h; percent of clofoctol response, vehicle zero; caspase activation, % (test concentration not listed); hit rate 0.066% among 330,000; AID 2462;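 active = over half of replicate activation scores above 10%, or exactly half above 10 with the replicate mean above 10; inconclusive = replicate mean below 10 yet half the replicates above 10; inactive = over half of replicates below 10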;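 also: wells of about 30 µL received 50 nL stock; many hits fall short of the cut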
# LANA-H2A inh – blocks KSHV LANA binding to histone H2A/H2B; cell-free LANA-H2A/H2B peptide, fluorescence polarization; AID 2629; inhibition, % (concentration not given with the values); hit rate 0.6% among 320,000; in the data active = inhibition mostly above about 10%, no sharp cut-off; inactive = mostly below about 6.7%;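 also: stock transfer was 7.5 nL into about 10 µL; 0% = median of vehicle wells and 100% = median of positive control wells; one replicate is shown; the record names a cut of 25% in any replicate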
# Target sequence (Q9QR71 whole entry, looked up): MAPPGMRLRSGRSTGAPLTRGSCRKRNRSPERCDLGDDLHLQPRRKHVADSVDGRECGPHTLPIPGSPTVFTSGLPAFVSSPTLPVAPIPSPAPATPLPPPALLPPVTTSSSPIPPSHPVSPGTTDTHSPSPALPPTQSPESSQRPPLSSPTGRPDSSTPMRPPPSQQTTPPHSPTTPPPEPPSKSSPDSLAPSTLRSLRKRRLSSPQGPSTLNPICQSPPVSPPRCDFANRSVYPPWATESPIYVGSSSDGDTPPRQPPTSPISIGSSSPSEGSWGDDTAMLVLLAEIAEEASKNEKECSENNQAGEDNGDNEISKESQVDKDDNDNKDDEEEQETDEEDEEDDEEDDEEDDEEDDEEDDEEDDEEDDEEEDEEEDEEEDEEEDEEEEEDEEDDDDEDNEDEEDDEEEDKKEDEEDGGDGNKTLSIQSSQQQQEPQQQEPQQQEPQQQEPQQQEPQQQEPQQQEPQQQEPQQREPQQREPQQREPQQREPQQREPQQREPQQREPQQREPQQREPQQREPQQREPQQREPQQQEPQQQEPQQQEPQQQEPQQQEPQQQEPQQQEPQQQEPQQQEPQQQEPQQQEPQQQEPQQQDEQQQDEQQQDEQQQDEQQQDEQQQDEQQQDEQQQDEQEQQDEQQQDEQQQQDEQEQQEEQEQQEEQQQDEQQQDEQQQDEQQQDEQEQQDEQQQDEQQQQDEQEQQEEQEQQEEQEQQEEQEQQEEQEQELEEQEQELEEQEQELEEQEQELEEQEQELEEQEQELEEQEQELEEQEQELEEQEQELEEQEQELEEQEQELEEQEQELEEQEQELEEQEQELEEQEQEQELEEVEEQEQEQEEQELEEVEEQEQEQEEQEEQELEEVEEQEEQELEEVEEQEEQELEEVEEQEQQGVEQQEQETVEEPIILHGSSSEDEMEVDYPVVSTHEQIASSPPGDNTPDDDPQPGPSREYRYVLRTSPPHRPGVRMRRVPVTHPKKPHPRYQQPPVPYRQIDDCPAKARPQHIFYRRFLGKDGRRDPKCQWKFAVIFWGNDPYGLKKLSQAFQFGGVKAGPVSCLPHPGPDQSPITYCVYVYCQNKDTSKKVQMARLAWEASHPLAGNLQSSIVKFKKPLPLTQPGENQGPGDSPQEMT
# T cruzi inh – T. cruzi replication inhibition; T. cruzi beta-gal in NIH3T3, luminescence, 90 h; inhibition, % (concentration not given with the values); hit rate 1.4% among 300,000;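 active = mean inhibition across valid replicates above about 55%, limit read from the data; inconclusive = mean below that limit but half or more replicates reach it; inactive = mean below it, under half of replicates reach it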;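 also: signal also drops with host cell toxicity which is not excluded here; 0% = plate median of DMSO wells and 100% = zero luminescence signal; higher percent means less beta-gal luminescence so fewer parasites; stock transfer was 50 nL into about 50 µL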
# * hit, by the source's call; ? = inconclusive; . = no result given.
SMILES,Beta apoptosis,B2AR ag,UCH37 inh,RanGTP-Imp inh,Calb FLC,Bfl-1 A1 inh,LANA-H2A inh,T cruzi inh
O=C(O)Cn1cnc2sc3c(c2c1=O)CCCC3,-6,-5,1.2,-3.8,31,0.1,3.4,-6
S=C(Nc1ccc(Cl)cc1)c1sc(N2CCCCC2)nc1N1CCOCC1,-6,0,-0.2,3.2,-29,1.1,-0.1,31
C=CCNC(=S)NNC(=O)c1ccc(OCCCC)cc1,-3,-2,1.2,1.1,?,0.1,-0.8,0
CCn1c(CNC(=O)c2ccc3c(c2)OCO3)nnc1SCC(=O)Nc1cc(C)ccc1OC,1,1,3.5,2.3,11,1.3,-2.1,4
Cc1ccc(-n2ncc3c(SCc4cccnc4)ncnc32)c(C)c1,.,-6,2.1,2.1,47,.,.,0
CCOCCn1c(=NC(=O)c2cc3ccccc3oc2=O)sc2cc(S(N)(=O)=O)ccc21,-6,-35,.,3.4,-4,0.3,-1.4,8
COCCNC(=S)Nc1ccc2nc(N3CCN(C)CC3)cc(C)c2c1,-4,-7,-5.8,-0.1,-4,0.5,-0.4,25
COC(=O)c1cc(NC(=O)CN(c2ccccc2OC)S(=O)(=O)c2ccccc2)ccc1Cl,12,5,-3.0,-0.3,-9,-0.3,0.7,33
COc1cccc(NC(=O)c2ccc[n+](C)c2)c1,2,-5,1.1,12,-1,0.0,-3.2,-6
Cn1nc([N+](=O)[O-])nc1N1CCOCC1,-4,3,3.9,0.2,-3,0.8,-1.7,35
Cc1cc(NC(=O)c2ccc(C#N)cc2)on1,-2,0,-0.3,-2.1,-5,0.8,-0.1,-1
CCOC(=O)CNc1nc(Cl)nc(Nc2ccccc2)n1,-7,-3,1.7,1.0,3,1.0,-1.1,1
Cc1cc(C)c2[nH]c(O)c(N=NC(=S)NCC3CCCO3)c2c1 (stereo unspecified),3,-4,3.3,-1.8,24,2.8,.,-23
O=C(O)c1ccc(NC(=O)c2cc3ccccc3o2)cc1,0,4,4.3,3.0,-5,-3.1,3.9,-1
Cc1nccn1CC(O)COc1ccc([N+](=O)[O-])cc1 (stereo unspecified),2,0,5.9,2.2,-6,0.5,-1.6,-3
O=C(CNC(=S)N(CCCN1CCOCC1)Cc1cccs1)NCc1ccccc1Cl,-3,-8,6.6,0.0,2,-0.3,-0.3,18
Cc1ccc(S(=O)(=O)N(C)CCCC(=O)n2nc(C)cc2C)cc1,-7,5,1.4,5.2,3,0.5,-2.3,-6
CCOC(=O)N1CCC(NC(=O)c2cc(-c3ccc(OC)cc3)nc3ccccc23)CC1,2,1,-147,-1.1,-2,1.8,-2.1,15
Cn1c(=O)[nH]c(=O)c2c1nc(Br)n2CCOc1ccccc1,9,4,2.1,-1.6,2,-0.4,9.6,-4
Fc1ccc(-n2c(-c3ccc4ccccc4n3)n[nH]c2=S)cc1,-2,-4,.,-5.1,9,0.3,-3.0,1
O=C(NCC(c1cccnc1)N1CCN(c2ccccc2)CC1)c1ccc2c(c1)OCO2 (stereo unspecified),2,-2,1.3,-1.3,-26,0.6,3.3,43
CCN1CCN(c2ccc(S(=O)(=O)N3CCOCC3)cc2NC(=O)CCOc2ccccc2)CC1,-5,-3,1.6,0.3,-5,0.7,-1.7,56*
CC1(C)CC(=O)c2cnc(NCc3ccco3)nc2C1,-2,0,1.7,.,.,0.6,0.4,.
CSCCC(NC(=O)c1ccccc1)C(=O)NCCCSc1ccccc1 (stereo unspecified),-1,2,6.4,.,.,-1.3,-25,.
CCC(CC)NC(=O)c1nn(Cc2ccccc2)c(=O)c2ccccc12,2,-5,4.8,-1.8,5,0.6,2.0,3
CCC(c1nc2ccccc2c(=O)n1-c1cccnc1)N1C(=O)c2ccccc2C1=O (stereo unspecified),-3,-6,-0.3,-0.5,7,1.4,1.6,-12
COC(=O)c1c(NC(=O)COC(=O)c2ccc(C)s2)sc2c1CCCCC2,1,8,0.6,1.2,-26,-0.2,2.2,5
O=S(=O)(c1ccc2c(c1)CCCN2)N1CCCC2CCCCC21 (stereo unspecified),2,12,2.2,6.9,2,0.7,8.0,28
Cc1cc(NC(=O)COc2cccc3cccnc23)no1,.,.,-1.3,0.4,2,.,.,-5
Cc1cc(C)c2cccc(NC(=S)NC(=O)c3ccccc3)c2n1,.,-17,2.8,5.6,-2,.,.,38
CCOc1ccc(CCNC(=O)CN2C(=O)CCSc3ccccc32)cc1,-1,-6,2.3,-2.5,1,-0.6,-3.7,8
CN(C(=O)CSc1nnc(-c2cccs2)n1N)c1ccccc1,-1,1,-2.1,.,.,-0.7,2.4,.
Cn1ccc(-c2ccccc2)n1,-3,-2,3.8,-13,33,0.4,5.8,0
COc1ccc(OC)c(C2=CC(=O)C[C@H](c3ccc4c(c3)OCO4)C2)c1,2,9,1.3,.,.,0.5,-3.9,.
O=C(COC(=O)C12CC3CC(CC(C3)C1)C2)Nc1ccc(OC(F)F)cc1,-6,5,2.0,3.2,-45,1.0,-2.6,-5
CCc1cccc2cc3c(N)c(C(=O)Nc4ccc(S(=O)(=O)N5CCCC5)cc4)sc3nc12,0,-157,0.0,-62,8,-0.4,-386,15
Cc1cc(O)cc2c1O[C@@](C)(CCC[C@@H](C)CCC[C@@H](C)CCCC(C)C)CC2,-6,-3,0.6,.,.,-0.1,3.6,.
O=C(COc1ccccc1)NCCSCc1ccco1,-6,6,1.7,-3.5,-8,0.0,1.6,-8
CC(CC(=O)Nc1cc(S(=O)(=O)N2CCOCC2)ccc1OCC(F)(F)F)c1ccccc1 (stereo unspecified),6,8,-2.3,.,.,0.6,-1.8,.
CCN(CC(=O)Nc1ccc(NC(C)=O)cc1)C(=O)CSc1nnc(-c2ccco2)n1CC,-1,7,4.2,-0.2,-1,-0.6,-4.5,-12
Cc1ccc(NC(=O)CSc2n[nH]c(-c3cccnc3)n2)cc1Cl,1,8,5.4,4.6,3,-0.3,-8.8,0
Cc1ccc(NC(=O)C2CCN(C(=O)[C@@H]3Cc4ccccc4CN3)CC2)cc1,1,-2,-0.2,6.8,-5,-0.2,-5.3,-8
COc1ccc(N2CCN(C(=S)Nc3cc(C)ccc3C)CC2)cc1,.,1,-0.6,-2.7,10,-0.6,-5.1,-14
COc1ccccc1C1=CC(=O)C[C@H](c2ccc(Cl)cc2)C1,-4,-9,1.5,.,.,0.2,1.8,.
COc1ccccc1N(CC(=O)NCCSc1ccccn1)S(=O)(=O)c1ccccc1,-1,-3,4.7,-3.4,0,0.1,0.3,0
Cc1nc2c3ccccc3[nH]c(=O)n2n1,-5,0,-1.5,-1.1,-6,0.5,-6.0,21
CC1CCCCC1NC(=O)CN1CCC(O)(c2ccc3c(c2)OCO3)CC1 (stereo unspecified),-1,-15,-0.2,-0.9,6,1.5,-3.4,19
O=c1[nH]c(CSc2nnc(Nc3ccccc3)s2)nc2ccccc12,16,14,0.6,1.2,4,-0.5,0.4,-14
COc1ccccc1NC(=O)c1ccc2c(c1)N(CC(=O)NC(C)(C)C)C(=O)C(C)(C)O2,-4,-3,2.2,-1.9,1,-0.4,-5.1,9
Cc1cc(SCC(=O)c2ccccc2)nc(=O)[nH]1,-5,-1,5.7,2.4,3,0.9,3.1,-7
# New compounds follow:
SMILES,Beta apoptosis,B2AR ag,UCH37 inh,RanGTP-Imp inh,Calb FLC,Bfl-1 A1 inh,LANA-H2A inh,T cruzi inh
Cc1cc(Cl)ccc1OCCCC(=O)N1CCN(S(=O)(=O)c2ccccc2)CC1,8,-2,-0.2,?,17,1.0,-7.1,23
CCC(C)c1ccccc1NC(=O)COC(=O)C1=COCCO1 (stereo unspecified),-1,-3,1.0,1.8,-5,0.0,-0.5,2
CC(=O)c1ccc(S(=O)(=O)N2CCN(CC(=O)Nc3ccc(Cl)c([N+](=O)[O-])c3)CC2)cc1,1,-5,4.5,.,.,-0.6,-1.6,.
CC1(C)OC(C)(C)/C(=C\c2ccccc2[N+](=O)[O-])C1=O,-4,4,5.8,9.4,-6,0.4,-3.1,-4
CCc1cc2c(-c3ccccc3)cc(=O)oc2cc1OC(=O)c1cccs1,-3,-6,2.6,.,.,0.6,-1.3,-1
c1ccc(Cc2nnc3sc(-c4ccc5c(c4)OCO5)nn23)cc1,-3,-3,-14,5.7,3,1.8,-3.5,18
CN(C(=O)CSc1nc(-c2ccccc2)cs1)C1CCS(=O)(=O)C1 (stereo unspecified),-7,-5,-1.1,-1.8,-2,-0.2,1.3,15
Cc1ccc2cc(C#N)c(N3CCCN(S(=O)(=O)c4ccc(F)cc4)CC3)nc2c1,.,-1,-34,18*,7,-1.0,1.9,20
Oc1ccc(-c2csc(Nc3cccc4ccccc34)n2)cc1O,-8,-1,-9.2,-2.6,4,-1.0,11,-3
COc1cccc2sc3ccc(NCc4ccc5c(c4)OCO5)cc3c(=O)c12,-3,-12,-1.2,?,-14,-0.9,-4.3,-10
CCOC(=O)CCCSc1nc2sc(C)c(C)c2c(=O)[nH]1,-1,3,5.5,0.1,-7,-0.3,-2.4,2
CC(Sc1cccc(C(F)(F)F)c1)C(=O)NC(N)=O (stereo unspecified),-11,-5,1.0,3.7,-13,-0.6,-2.1,-3
CCCCn1c(N)c(N(CCC(C)C)C(=O)C2=NN(c3cc(C)ccc3C)C(=O)CC2)c(=O)[nH]c1=O,-3,-3,6.3,5.6,-13,0.5,-4.8,-1
COc1ccccc1CN1CC(C(=O)NCCc2ccc(C)o2)CCC1=O (stereo unspecified),-6,8,-2.3,2.3,4,-1.9,-3.0,-7
Cc1ccc(CS(=O)(=O)c2ccc(C(=O)N3CCN(c4ccccn4)CC3)cc2[N+](=O)[O-])cc1,-23,-5,-0.7,1.4,0,0.7,7.0,15
O=C(NCCc1ccccn1)c1cc(C(=O)C2CCCCC2)c[nH]1,-3,-1,3.3,4.5,21,0.0,3.6,-12
COc1ccc(NS(=O)(=O)c2cc(NC(=O)c3ccccc3F)ccc2N2CCCC2)cc1,9,-2,0.4,-1.1,0,-0.3,2.9,9
COc1ccc(NC(=O)COc2cccc3c2CCN(C)C3=O)c(OC)c1,10,3,3.7,-1.4,-6,-0.2,-2.4,23
CC1(C(=O)NC2CCCCC2)CCC(=O)N1Cc1ccc2c(c1)OCO2 (stereo unspecified),-12,-1,3.9,-0.2,-1,0.0,-1.0,-1
O=C(C[n+]1ccc(-c2ccccc2)cc1)Nc1ccc([N+](=O)[O-])cc1,-3,-10,9.3,1.7,-20,0.4,5.1,-6
CCOC(=O)c1nc2ccccc2c(C)c1C,-1,3,2.9,3.5,-10,0.2,-3.7,3
CC1CCCCC12NC(=O)N(CC(=O)N1CCc3ccccc31)C2=O (stereo unspecified),-5,-2,3.5,.,.,-0.7,0.2,.
COc1ccc(S(=O)(=O)N2CCCC2C(=O)n2nc(C)cc2C)cc1 (stereo unspecified),-4,-9,3.1,-2.5,-5,0.1,-2.5,-13
CCc1nnc(NC(=O)CN2CCN(Cc3cccc(OC)c3)CC2)s1,1,-1,0.7,-4.1,5,0.2,-1.7,27
COc1cccc(CC(=O)NNC(=O)CN(C)S(=O)(=O)c2ccc(C)cc2)c1,-1,0,2.9,.,.,0.8,1.0,.
